EPAC2 ant val: Validation qHTS for antagonist of cAMP-regulated guanine nucleotide exchange factor 4 (EPAC2) | EPAC2 Rap1B BODIPY-GDP exchange, fluorescence | hit rate 1.7% among 16,000 | Potency, µM (doses to about 112 µM), for inactives: at the highest dose activity, negative = inhibition, most hits filed as inhibitors | Rap guanine nucleotide exchange factor 4 (Homo sapiens), Q8WZA2 | AID 1645886, 2021; active means well fitted inhibition curve with a large enough effect; inconclusive means small, poorly fitted or top-dose-only effect; inactive means no such curve, though single readings can be large or run the other way;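 further: 100% = activation by cAMP agonist control; nearly all actives have a fitted effect of over 40% in size; the record reuses the description of the EPAC1 agonist screen; inactives centre near -10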
Target sequence (Q8WZA2 whole entry, looked up): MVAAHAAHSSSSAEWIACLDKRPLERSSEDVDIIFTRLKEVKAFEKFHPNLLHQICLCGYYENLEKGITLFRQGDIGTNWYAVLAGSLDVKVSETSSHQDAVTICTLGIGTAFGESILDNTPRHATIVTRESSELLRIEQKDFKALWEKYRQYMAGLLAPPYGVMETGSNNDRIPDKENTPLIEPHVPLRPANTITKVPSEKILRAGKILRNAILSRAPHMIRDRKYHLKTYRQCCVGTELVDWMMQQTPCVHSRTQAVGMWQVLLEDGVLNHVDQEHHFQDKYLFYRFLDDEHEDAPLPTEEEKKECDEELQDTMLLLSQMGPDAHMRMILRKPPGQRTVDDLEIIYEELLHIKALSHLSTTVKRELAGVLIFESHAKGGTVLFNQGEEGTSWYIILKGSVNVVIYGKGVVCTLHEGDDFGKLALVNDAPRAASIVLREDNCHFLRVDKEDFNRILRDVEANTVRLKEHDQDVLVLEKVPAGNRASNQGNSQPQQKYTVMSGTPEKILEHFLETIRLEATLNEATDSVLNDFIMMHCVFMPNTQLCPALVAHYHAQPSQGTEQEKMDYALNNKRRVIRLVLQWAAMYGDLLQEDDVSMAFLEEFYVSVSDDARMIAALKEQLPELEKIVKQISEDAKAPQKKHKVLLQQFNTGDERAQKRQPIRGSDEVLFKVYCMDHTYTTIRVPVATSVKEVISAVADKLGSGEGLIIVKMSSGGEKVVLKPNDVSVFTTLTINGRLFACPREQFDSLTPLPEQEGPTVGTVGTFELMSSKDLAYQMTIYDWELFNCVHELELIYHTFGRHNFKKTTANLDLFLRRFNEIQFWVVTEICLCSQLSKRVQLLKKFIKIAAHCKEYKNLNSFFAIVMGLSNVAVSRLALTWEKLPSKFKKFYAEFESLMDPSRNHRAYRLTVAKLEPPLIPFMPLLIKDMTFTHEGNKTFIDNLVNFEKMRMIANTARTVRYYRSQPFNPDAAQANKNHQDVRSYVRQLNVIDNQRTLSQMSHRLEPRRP
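Fluorescent exchange read-out: 100 nM EPAC2 with 250 nM RAP1B–BODIPY-GDP and 50 uM GDP; BODIPY-GDP release lowers fluorescence. Read at 480/540 nm every 5 min for 30 min at room temperature; normalized to 6.5 mM cAMP.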
* = called active by the depositor; u = inconclusive; & = joins results of further samples; [ ] = dose if it differs, or a comment. Potency means the concentration at half of the fitted maximal effect.

SMILES	EPAC2 ant val
O=c1c(CCc2ccccc2)nc2cnc(N3CCNCC3)nc2n1Cc1cccs1	-10%
O=C1NC(=O)C(c2ccccc2)(c2ccccc2)N1	1%&-11%&-14%&-25%
Cc1ncc2c(c1CNC(=O)c1ccc3c(c1)OCO3)CCN(C(=O)c1cccc(-n3cccn3)c1)C2	-7%
O=C1CCC[C@@H]2C[C@@]3(C[C@@H]4CCN1[C@H]24)Nc1cc(Cl)c(Cl)cc1NC3=NCc1ccccc1	-27%
CCCCCCCCCC(=O)NO	-25%&12%
N#Cc1cccc(-c2nc(NCc3cccs3)c3ccccc3n2)c1	-24%
CS(=O)(=O)N1CCC2(CCCN(c3ncccn3)C2)CC1	-26%
Cc1cc(C(=O)N(Cc2cc3cc4c(cc3nc2N2CCOCC2)CCC4)CC2CCCO2)c(=O)[nH]c1C (stereo not given)	-19%
CN(C(=O)C(Cl)Cl)c1ccc(OC(=O)c2ccco2)cc1	-20%
Cc1ccc(C)c(CN2C[C@H](Sc3ccccn3)C[C@H]2C(=O)Nc2ccc3sc(C)nc3c2)c1	1%
CCN(CC)C(=O)c1cc(S(=O)(=O)Cc2ccccc2)c(N2CCC(c3ccccc3)CC2)cc1N(CC)CCN(C)C	-15%
COc1cc(CN2CCOc3ccc(CN4CCN(CCO)CC4)cc3C2)ccc1F	10%
O=C(Oc1ccccc1)N1CCC2(CC1)CCN(c1ccncc1)CC2	-17%
COc1ccc(C(=O)N(O)c2ccccc2)cc1	9%
COc1ccc2[nH]cc(CC(N)C(=O)O)c2c1 (stereo not given)	-3%&-11%
CC(=O)O[C@H]1C[C@@]2(C)[C@@H](C[C@@H](O)[C@H]3[C@@]4(C)CC[C@@H](O)[C@@H](C)[C@@H]4CC[C@@]32C)/C1=C(\CCC=C(C)C)C(=O)O	-2%
CCN(CC)CCNc1ccc(CO)c2sc3ccccc3c(=O)c12	-19%
C/C=C(/C)C(=O)OC1Cc2c(ccc3ccc(=O)oc23)OC1(C)C (stereo not given)	-13%
COC(=O)c1cn([C@@H]2C[C@@H](C(=O)Nc3cccc(SC)c3)N(C3CCCCCC3)C2)nn1	-20%
CN1CCN(C2=Nc3ccccc3Sc3ccc(Cl)cc32)CC1	u

Shown with bars between the fields: entries from further up
molecule | EPAC2 ant val
C/C=C(/C)C(=O)OC1Cc2c(ccc3ccc(=O)oc23)OC1(C)C (stereo not given) | -13%
COC(=O)c1cn([C@@H]2C[C@@H](C(=O)Nc3cccc(SC)c3)N(C3CCCCCC3)C2)nn1 | -20%
CN1CCN(C2=Nc3ccccc3Sc3ccc(Cl)cc32)CC1 | u

(continued)
SMILES	EPAC2 ant val
O=[N+]([O-])c1cccc(S(=O)(=O)NCCNS(=O)(=O)c2cccc([N+](=O)[O-])c2)c1	-2%
CO[C@H]1[C@H](NC(=O)c2ccsc2)c2ccccc2C12CCN(Cc1cnn(C)c1C)CC2	-9%
CC(C)CCCC(C)C1CCC2C3CC=C4CC(O)CC[C@@]4(C)C3CC[C@@]12C (stereo not given in full)	-8%
NC(N)=N/N=C/c1c(Cl)cccc1Cl	-14%&3%
NC[C@@H](O)c1ccc(O)c(O)c1	u
Cc1cc(C(C)(C)C)c(O)c(C)c1CC1=NCCN1	u
COC(=O)N1CCC2(CC1)CCN(C(c1ccccc1)c1ccccc1)CC2	-17%
COc1ccc2c(c1)OC/C(=C\c1ccc(OC)c(O)c1)C2=O	-32%
COCC(=O)N1CCC2(CCCN(Cc3ccccc3)C2)CC1	-20%
COc1cccc(CN2CCC(c3nnc(SCC4CCCO4)n3C)CC2)c1O (stereo not given)	-12%
CC(C)C(=O)NCC1CCC2(CCN(Cc3ccc(-c4cccc(Cl)c4)o3)CC2)O1 (stereo not given)	3%
COCCn1c(=O)c(C)nc2cnc(Oc3ccccc3)nc21	-10%
C/C(=C\c1ccco1)CN1CCOc2ccc(C(C)(O)COc3ccccc3)cc2C1 (stereo not given)	-16%
CO[C@]1(NC(=O)CSC(F)F)C(=O)N2C(C(=O)O)=C(CSc3nnnn3CCO)CO[C@H]21	8%
CC(C)c1c(C(=O)NCc2ccccn2)cnn1-c1nccc(-c2ccccc2F)n1	-31%
O=S(=O)(N(Cc1ccccc1)[C@H](CO)Cc1ccccc1)N(Cc1ccccc1)[C@H](CO)Cc1ccccc1	-8%
CC(C(O)c1ccc(O)cc1)N1CCC(Cc2ccccc2)CC1 (stereo not given)	u
CCNc1ncc2ncc(=O)n(CCc3ccccc3)c2n1	-7%
N#Cc1cccc(-c2ccc3ncnc(NCc4cccnc4)c3c2)c1	-13%
O=C1C=CC2=C3c4cc(O)c(O)cc4CC3(O)COC2=C1O (stereo not given)	-23%&13%
C[n+]1ccc(C(c2c[nH]c3ccccc23)c2cc[n+](C)c3ccccc23)c2ccccc21	40%[activator]
COc1ccccc1-c1ccc2ncnc(N3CCOCC3)c2c1	u
CN(Cc1ccco1)c1ccnc(-c2cccc(C#N)c2)n1	u
CC1(C)CC2/C(CO)=C/C=C/[C@](C)(O)CC[C@]21O (stereo not given in full)	1%
C=Cc1ccc(S(=O)(=O)O)cc1	6%
COc1ccc(Oc2ncc3nc(-c4ccc(F)cc4)c(=O)n(C[C@H]4CCCO4)c3n2)cc1	-10%
CCN(Cc1ccncc1)Cc1ccc2c(c1)CN(C(=O)c1cccc(-n3nc(C)cc3C)c1)CCO2	-14%
Cn1cccc1C(=O)N1CCC2(CCCN(c3cccc(-c4ccccc4)c3)C2)CC1	-11%
CS(=O)(=O)N1CCC2(CC1)CN(c1ccccc1)C2	-28%
C[C@]12CC[C@@H]3c4ccc(O)cc4CC[C@H]3[C@@H]1CC[C@@H]2OC(=O)CCC1CCCC1	-6%&-5%
COC(=O)[C@H](C)NS(=O)(=O)C1CC1	-13%
COc1ccc(C(=O)N2CCC3(CCCN(Cc4ccncc4)C3)CC2)cc1	-12%
COc1ccc(-c2nc3cnc(N4CCNCC4)nc3n(Cc3cccc(OC)c3)c2=O)cc1	-98%
O=C(c1ccccc1)C(O)c1ccccc1 (stereo not given)	-17%
O=C1CC[C@@]23/C=C/C(=O)NCCCCNCCCNC(=O)/C=C/c4ccc(c2c4)OC3C1 (stereo not given in full)	22%
C[C@]12C=CC(=O)C=C1CC[C@H]1[C@@H]3C[C@@H](O)[C@](O)(C(=O)CO)[C@@]3(C)C[C@H](O)[C@@]12F	8%&25%
Cc1ccc(/C(=C/CN2CCCC2)c2ccccn2)cc1	-14%
C/C=C(\C)C(=O)NCCN1Cc2ccccc2OC(c2ccccc2OC)C1 (stereo not given)	-16%
[N-]=[N+]=NCCN1CCN(Cc2ccccc2)CCC1=O	-13%
O=C1CC[C@H](O)CCN1CCSc1ccc(Br)cc1	u

Looked up one by one from the list above, 2 records:
SMILES	EPAC2 ant val
CC(C)CCCC(C)C1CCC2C3CC=C4CC(O)CC[C@@]4(C)C3CC[C@@]12C (stereo not given in full)	-8%
COc1ccc(-c2nc3cnc(N4CCNCC4)nc3n(Cc3cccc(OC)c3)c2=O)cc1	-98%

(listing goes on)
SMILES	EPAC2 ant val
CCN(CC)c1ccc(C(=C2C=CC(=[N+](CC)CC)C=C2)c2ccccc2)cc1	20%
O=c1cc(-c2ccc(O)c(O)c2)oc2cccc(O)c12	-21%
COc1ccc(NC(=O)N2CCC3(CC2)CCN(S(C)(=O)=O)CC3)cc1	-16%
Cc1c(N)c(=O)n(-c2ccccc2)n1C	30%[activator][56.6 µM]
COc1ccc(CN2CCCC(n3cc(C(=O)N4CCCCC4)nn3)C2)c(OC)c1C (stereo not given)	-2%
O=C(NCC1(N2CCOCC2)CCCC1)c1cnn(-c2nccc(-c3ccco3)n2)c1C1CC1	4%
CN(C)Cc1ccccc1-c1ccc2ncnc(NCc3ccccc3)c2c1	-11%
O=C(NC1CCC(=O)N(CCSc2ccccc2)CC1)OCc1ccccc1 (stereo not given)	-13%
N#CCCn1c(=O)c(-c2ccc(Cl)cc2)nc2cnc(N3CCOCC3)nc21	7%
Cc1cccc(C)c1NC(=O)CN1CCCC1	-6%
COc1ccc2[nH]cc(CCNc3cc(-c4c(C)noc4C)ncn3)c2c1	-28%
O=C1CCC(O)CCN1CCSc1ccccc1 (stereo not given)	13%
O=C(C[n+]1ccccc1Cl)c1ccc(F)cc1	4%
COc1cccc(Cn2c(=O)c(-c3cccc(F)c3)nc3cncnc32)c1	-47%
CN1CCN(c2ccnc(-c3ccoc3)n2)CC1	-22%
O=c1c(-c2cc(F)cc(F)c2)nc2cnc(N3CCNCC3)nc2n1Cc1cccs1	45µM*
Cc1cccnc1-c1cccc2c1OC(CNC(=O)C(=O)c1ccccc1)C2 (stereo not given)	u
CCCCCCCCCCCC(=O)[O][Sn]([CH2]CCC)([CH2]CCC)[O]C(=O)CCCCCCCCCCC	u
OCc1cccnc1	10%
Cc1ccc(C(=O)O[C@H](C(=O)O)[C@@H](OC(=O)c2ccc(C)cc2)C(=O)O)cc1 (tested in a mixture with another compound)	-9%
Cc1nc2cnc(N3CCN(C)CC3)nc2n(Cc2cccs2)c1=O	-18%
COc1cc(=O)n2c(c1C(=O)N(C)Cc1nonc1C)CCN(Cc1cccc3ccccc13)CC2	-17%
CCCCCCCCCCCCCCCCCC[N+](C)(C)CCC[Si](OC)(OC)OC	5%
O=C(Nc1ccccc1)O[C@@H]1C[C@H]2CCC(=O)N3CC[C@@H](C1)[C@@H]23	2%
CCNCCCNCCCNCCCNCC	-26%
CC(NC(=O)c1cccnc1)c1nnc2n1CCN(Cc1ccc(F)cc1F)CC2 (stereo not given)	5%
O=c1cc(-c2ccc(O)cc2)oc2cccc(O)c12	-9%
O=S1(=O)[C@H]2C[C@@H]3C=C[C@@]2(CN1Cc1ccc(Cl)cc1)O3	15%
COc1cccc(CN2CCCC(c3nc(C)ncc3-c3ccc(F)cc3)C2)c1OC (stereo not given)	-22%
c1ccc(C(c2ccccc2)N2CC[C@@]3(CCCNC3)C2)cc1	-12%
COC(=O)C(CN)c1c[nH]c2ccc(OC)cc12 (stereo not given)	-15%
COC1C(O)C(CO)OC1n1cnc2c(=O)[nH]c(N)nc21 (stereo not given)	0%
CCNC(=O)c1sc2ncnc(NCCCN3CCOCC3)c2c1C	10%
O=C(NCC1CCC2(CCN(Cc3cnn(-c4ccc(F)cc4)c3)CC2)O1)c1ccccc1 (stereo not given)	-10%
CO[C@H]1[C@H](NC(=O)c2ccsc2)c2ccccc2C12CCN(Cc1cc3ccccc3o1)CC2	-10%
Cc1ccccc1-c1cnc(-c2ccncc2)nc1C1CCCN(Cc2ccccc2O)C1 (stereo not given)	-5%
Cc1onc(-c2ccc3c(c2)OCO3)c1-c1ccc2[nH]ccc2c1	u
COC(=O)c1cccc(C(=O)NCc2nc(-c3ccccc3NC(C)=O)oc2C)c1	-25%
COCC(=O)Nc1cc(C(=O)NC2CCCc3ccccc32)c2c(c1)nc(-c1ccncc1)n2C (stereo not given)	-11%
O=c1cc(-c2ccccc2)oc2c(O)c(O)ccc12	-25%

Entries above that have two or more sulfur atoms, in the order listed:
SMILES	EPAC2 ant val
Cc1ccc(C)c(CN2C[C@H](Sc3ccccn3)C[C@H]2C(=O)Nc2ccc3sc(C)nc3c2)c1	1%
O=[N+]([O-])c1cccc(S(=O)(=O)NCCNS(=O)(=O)c2cccc([N+](=O)[O-])c2)c1	-2%
CO[C@]1(NC(=O)CSC(F)F)C(=O)N2C(C(=O)O)=C(CSc3nnnn3CCO)CO[C@H]21	8%

Additional entries:
SMILES	EPAC2 ant val
COc1ccc2[nH]cc(CCNc3ncnc4ccc(-c5ccccc5CN(C)C)cc34)c2c1	-13%
COc1ccc2[nH]cc(CCNc3ncnc4ccc(-c5ccccc5C#N)cc34)c2c1	-21%
COc1cccc(Cn2c(=O)cnc3cncnc32)c1	-23%
O=C(NCCc1ccccc1)[C@@H]1CC=C[C@@H]2CCN(C3CC3)C(=O)[C@@H]21	6%
O=C(CN1Cc2ccccc2OC(c2ccccc2)C1)N1CCCCC1c1cccnc1 (stereo not given)	-36%
COc1ccccc1CN1CCCC(n2cc(C(=O)N3CCCCC3)nn2)C1 (stereo not given)	20%
Cn1nnnc1SCC1=C(C(=O)O)N2C(=O)C(NC(=O)C(OC=O)c3ccccc3)C2SC1 (stereo not given)	17%
CN(C)c1ccc(-c2c(-c3ccc4c(c3)OCO4)noc2-c2ccsc2)cn1	-28%
O=C(O)/C=C/c1cnc[nH]1	4%
Cc1cnc(CNc2ncncc2-c2ccc(C(=O)N(C)C)cc2)cn1	-11%
COc1cc(C/C=C\c2ccccc2)c(OC)cc1O	0%
CC(C)NC(=O)N1CCCC2(CCN(C(=O)c3cc(C(F)(F)F)cc(C(F)(F)F)c3)CC2)C1	u
COc1ccc(OC)c(CN2CCC3(CCC(CNC(=O)c4ccco4)O3)CC2)c1 (stereo not given)	2%
CCc1noc(C)c1C(=O)NCCN1Cc2cc(OC)ccc2OC(CC)C1 (stereo not given)	-18%
COc1ccccc1N1CCN(c2nc(CNC(=O)C3CC34CCCC4)nc3ccccc23)CC1 (stereo not given)	u
COc1ccc2[nH]cc(CCNc3ccnc(-c4cccc(NS(C)(=O)=O)c4)n3)c2c1	-9%
CCCCCc1c2c(cc(O)c1C(=O)O)OC(=O)c1c(cc(OC)cc1C(=O)CCCC)O2	u
CCc1nc2cc(C(=O)N(C)CC3COCCO3)cc(NC(=O)c3ccccc3OC)c2n1C (stereo not given)	5%
CC(=O)NCC(=O)N[C@H](CCC(=O)O)C(=O)O	-18%
CCCCN1CC[C@H]2C=CC[C@@H](C(=O)N3CCN(c4ccccc4)CC3)[C@H]2C1=O	4%
COc1ccc2c(C)cc(=O)oc2c1	-6%
N#C/C(=C\c1ccc(-c2cc(Cl)ccc2Cl)o1)C(=O)Nc1cccc2ncccc12	-4%
COCCCC/C(=N\OCCN)c1ccc(C(F)(F)F)cc1	-26%
COc1ccc(C(=O)N2CCC3(CCCN(c4ccccc4)C3)CC2)cc1	-20%

High-throughput results from PubChem.

This is a subset (hit frequency here may not be typical).
